NPYLR7 agonist: mosquito NPYLR7 agonism; 0.15% of 270,000 active; HEK293T NPYLR7/Galpha15, GCaMP6s calcium fluorescence; activation, % at 10 µM; AID 1259423; in the data active = activation above about 40%;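 also: 0% = vehicle and 100% = reference agonist at the receptor; some compounds past the cut are filed as inactive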
NPYLR7 agonist max-min: also measured in NPYLR7 agonist; calls as there; activation, %; measured here: Max-Min RFU normalised activation; some inactives read as strong as hits;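 span of the calcium signal over five minutes; 0% = vehicle and 100% = native peptide agonist; compound fluorescence can raise it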
Numbers without * were called inactive; & = joins results of further samples.

SMILES	NPYLR7 agonist	NPYLR7 agonist max-min
CCCN(CC(=O)c1c(C)c(C(=O)OC)n(CC)c1C)S(=O)(=O)c1cc(Cl)ccc1Cl	-9.8	-0.7
CC(C)CCCC(C)[C@H]1CCC2C3CC=C4CC(=O)CC[C@]4(C)C3CC[C@@]21C (stereo partly specified)	-13.0	-14.0
O=C(O)C1CCN(C(=O)CCN2CCCCCCC2)CC1	5.3	3.6
Cn1c(-c2ccc(Cl)cc2)csc1=Nc1ccc(Cl)cc1	0.6	0.0
COC(=O)c1c(NC(=O)c2cc3nc(-c4cccs4)cc(C(F)(F)F)n3n2)sc2c1CCCC2	-23.3	-30.0
CCOC(=O)c1cc(-c2cccc(NC(=O)c3ccc4nonc4c3)c2)n(-c2ccc(F)cc2)n1	29.5	19.8
COc1ccc(C(C)(NC(C)=O)c2nc(/C=C/c3ccccc3)cs2)cc1 (stereo unspecified)	2.3	0.8
O=C(Nc1ccc(-n2nc(OCc3ccc(F)cc3)nc2-c2ccco2)cc1)c1ccco1	3.3	10.2
COc1cccc(COC(CN2CCN(C(=O)c3cccc(C#N)c3)CC2)c2ccc(Cl)cc2)c1 (stereo unspecified)	-3.8	7.3
COc1ccc(Br)cc1COc1ccc2c(c1)OCO2	21.5	24.1
Cc1cc(C(=O)NCCc2ccc(Cl)cc2Cl)nc2cc(-c3ccccc3)nn12	22.8	23.6
COc1cc(NC(=O)C2(c3ccc(Cl)cc3)CC2)cc(OC)c1	-8.9	-9.2
CCCCS(=O)(=O)N1CCN(c2c(Cc3ccccc3)c(C)nc3ncnn23)CC1	-2.8	4.1
Cc1ccc(-c2nc3ccccn3c2NC(=O)COc2ccc(Cl)cc2)cc1	-1.4	2.6
FC(F)(F)CCc1ccnc(NCc2cccnc2)n1	6.9	5.9
CC(C)CN(CC(=O)N(Cc1ccccc1)Cc1cccn1C)C(=O)c1ccc(Cl)cc1	8.0	10.3
CN(C)C(=O)c1csc(-c2csc(NCC3CCC3)n2)c1	0.3	-0.9
O=[N+]([O-])c1cccc(-c2nc(-c3ccc(Cl)cc3)no2)c1	-6.2	-8.3
CCOC(=O)C1CCN(C(=O)c2cccc(Nc3c(Oc4ccc(Cl)c(C)c4)cnn(C)c3=O)c2)CC1	11.0	12.8
CCn1c(O)c(C=NCCCC(=O)OC)c(=O)n(CC)c1=S	-2.1	-7.7
COc1ccc(-c2nc3ccccc3c(=O)[nH]2)cc1C	-19.4	-21.2
O=C(Nc1nc2ccc3ccccc3c2s1)c1ccc(Br)s1	-0.8	-1.5
Cc1ccc2nc(COC(=O)c3cc(C)oc3C)cc(=O)n2c1	-1.1	-6.9
CC(C)=C(NC(=O)c1ccccc1)C(=O)N/N=C/c1coc2ccccc2c1=O	-17.8	-21.7
CN(Cc1ccccc1)C(=O)c1csc([C@@H]2O[C@H](CO)[C@H](O)[C@H](O)[C@H]2O)n1	2.2	1.8

Exported as a markdown table: entries from further up
| Molecule | NPYLR7 agonist | NPYLR7 agonist max-min |
| --- | --- | --- |
| CCOC(=O)C1CCN(C(=O)c2cccc(Nc3c(Oc4ccc(Cl)c(C)c4)cnn(C)c3=O)c2)CC1 | 11.0 | 12.8 |
| CCn1c(O)c(C=NCCCC(=O)OC)c(=O)n(CC)c1=S | -2.1 | -7.7 |

The results go on.
SMILES	NPYLR7 agonist	NPYLR7 agonist max-min
Cc1nc(N2CCCCCC2)c2ccsc2n1	-5.2	-6.1
Cc1ccc2nc(Oc3ccc4c(c3)OCO4)cc(=O)n2c1	-0.4	-5.8
CCCN(Cc1ccc(SC)cc1)C(=O)c1cnc2ccccn2c1=O	-4.4	-7.7
CC(C)Oc1ccc(C(=O)NCc2cccnc2N2CCN(C)CC2)cc1	3.4	-1.1
Cc1nonc1CN(C)c1nccc(CCC(F)(F)F)n1	10.8	1.2
C=CCN1C(=O)/C(=c2/sc3nc4ccccc4n3c2=O)c2ccccc21	-1.7	-4.9
CCOc1ccccc1N1CCN(C(=O)c2csc(CSc3nnc(-c4ccccc4Cl)n3-c3ccccc3Cl)n2)CC1	-10.1	-2.9
Cc1cccc(-c2cc(N)n(-c3ccc(C(=O)NCCC4=CCCCC4)cc3)n2)c1	23.1	11.6
Cc1cc(C)c(C(=O)NC2CCCN(CCc3ccccc3)C2)[nH]1 (stereo unspecified)	6.2	3.9
COC1(OC)N=C(N)C2(C#N)C(c3ccc(C)cc3)C12C#N (stereo unspecified)	-1.0	-4.5
O=C(Nc1ccccc1COc1ccccc1)c1ccnc(Cl)c1	-11.2	-12.8
O=C(NCc1ccc(CN2CCOCC2)cc1)c1ccc2ccccc2n1	15.4	13.4
CCOC(=O)c1c(C)nn(-c2ccc(C(=O)N(C)C(c3ccccc3)c3ccccc3)cc2)c1C	-6.5	-11.4
CCOC(=O)N1CCC(N2CCC(CO)(CC3CCCCO3)CC2)CC1 (stereo unspecified)	-0.5	-4.3
CCOC(=O)/C=C(\C)Nc1cc(-c2ccc(Br)cc2)[nH]n1	-11.0	-15.4
CCOCCn1c(=NC(=O)c2ccc3ncsc3c2)sc2cc(OC)c(OC)cc21	-0.9	-3.3
Fc1cccc(Nc2ccccc2)c1	15.7	7.7
COc1cc(/C=C2\C(=O)N(c3cccc(Cl)c3)N=C2C)c([N+](=O)[O-])cc1OC	-12.8	-22.5
COC(=O)c1ccc2c(c1)CN(C(=O)/C=C/c1ccc(C)cc1)CC2	2.7	6.2
CN(CCC(=O)N1CCC2(CCNCC2)CC1)S(C)(=O)=O	-6.1	-6.8
CO/N=C(/C(=O)N1CCC(O)(c2ccc(Cl)cc2)CC1)c1csc(NC=O)n1	-9.7	-14.5
O=C(NCCC(c1ccccc1)c1ccccc1)c1ccc(-c2cc(-c3ccc4c(c3)OCCO4)n[nH]2)cc1	6.2	1.9
Cc1n[nH]c(C)c1CCCNC(=O)C(C)(C)NC(=O)c1cccs1	7.9	4.5
Cc1ccc(Nc2cc(C)nc(N3CCN(C(=O)CC4CCCC4)CC3)n2)cc1	8.5	2.3
Cc1cc(-c2c(C)sc(C)c2I)c(C)s1	-0.4	1.7

Compound profiles (already shown). Screens in order: NPYLR7 agonist	NPYLR7 agonist max-min
Profile of `Cc1n[nH]c(C)c1CCCNC(=O)C(C)(C)NC(=O)c1cccs1` = 7.9	4.5
Profile of `CCOc1ccccc1N1CCN(C(=O)c2csc(CSc3nnc(-c4ccccc4Cl)n3-c3ccccc3Cl)n2)CC1` = -10.1	-2.9

More compounds follow.
SMILES	NPYLR7 agonist	NPYLR7 agonist max-min
O=C(CN1CN(c2ccccc2)C2(CCN(C(=O)NC3CCCCC3)CC2)C1=O)Nc1ccc(F)cc1	2.8	14.7
CC(NC(=O)NCCc1ccc(F)cc1)c1ccccc1Br (stereo unspecified)	9.0	6.1
CC(C)(C)c1cc(C(F)(F)F)c2c(=O)n(-c3ccccc3)[nH]c2n1	-5.3	-9.6
CCOc1cn(C)c(C(=O)Nc2ccc(C(N)=O)cc2)cc1=O	4.7	3.8
Cc1c(CN2CCN(C)C3(CCN(C(=O)OCC(C)C)CC3)C2)cnn1C	1.3	0.7
CC(C)(C)NCC(O)COc1nsnc1N1CCOCC1 (stereo unspecified)	0.6	-6.0
Cc1cc(OCC(=O)N2CCOCC2)cc(C)c1NC(=O)C12CC3CC(CC(C3)C1)C2	1.3	-2.1
O=C(C1CCCCC1)N(Cc1ccccn1)c1nc2c(F)cc(F)cc2s1	4.6	-3.1
COCCNC(=O)C(NC(=O)c1cccc(OC)c1)C1CCN(S(=O)(=O)c2ccc(OC)cc2)CC1 (stereo unspecified)	10.3	8.6
Cc1ccc(-c2ccc(C#N)s2)cc1NC(=O)CN1CSCC1=O	-4.4&2.2	-5.5&2.6
CC(=O)O[C@@H]1CC(C)(C)CC2(C1)C[C@]1(C)CC(=O)[C@H]2C(C)(C)C1 (stereo partly specified)	-2.5	-4.6
COc1ccc(-n2cc(CNCCOc3cccnc3)c(-c3cccc(F)c3)n2)cc1	-0.5	-3.7
Cc1csc(SCC(=O)NCC2Cc3cc(F)cc(-c4cccnc4)c3O2)n1 (stereo unspecified)	15.2	3.0
CCN1C(=O)/C(=C/C=C2/Sc3ccccc3N2CCO)SC1=S	6.8	4.4
O=C(NC1=NCCS1)c1ccc(Br)c(S(=O)(=O)N2CCOCC2)c1	9.7	3.6
CCc1nc2ccc(C(=O)Nc3ccc(C(=O)N(C)C)cc3)cn2c1N(C)Cc1ccc(Cl)cc1	-1.5	37.8
NC(=O)c1cccc(Cn2cc(I)cn2)c1	10.7	5.1
Cc1ccoc1C(=O)N1CCNCC1C(=O)Nc1ccc(F)cc1 (stereo unspecified)	56.2	34.1
Cc1cccc(C)c1NC(=O)CNC(=O)C(C)OC(=O)C1CCCCC1 (stereo unspecified)	5.7	2.4
CC(=O)NCCC(=O)OC1CCCCC1C(C)C (stereo unspecified)	-4.3	-8.7
O=c1c(CN2CCN(CCc3ccccc3)C(CCO)C2)coc2ccccc12 (stereo unspecified)	10.5	4.3
COc1ccc(N2C(=O)CN(CCc3ccccc3OC)C3CS(=O)(=O)CC32)cc1 (stereo unspecified)	1.9	1.2
O=C(NNC(=O)c1ccccc1Cl)c1cccc(Br)c1	7.3	12.5
Cc1c[nH]c(CNC(=O)CC2C(=O)NCCN2C(C)C)c(C)c1=O (stereo unspecified)	2.7	3.1
CC1C(=O)N(c2ccc(F)cc2)CCN1C(=O)c1ccco1 (stereo unspecified)	-0.9	2.7

The results go on.
SMILES	NPYLR7 agonist	NPYLR7 agonist max-min
CCOC(=O)c1sc2ncn(CC(=O)NCCc3ccccc3)c(=O)c2c1C	-0.2	3.3
Cc1ccc(S(=O)(=O)NC(=O)C2(C)CCN2C(=O)Cc2cccs2)cc1 (stereo unspecified)	9.5	9.2
Cc1ccccc1-n1nnn(CN2CCC(C)CC2)c1=S	0.8	-0.2
CC(C)C(OC(=O)CCC(=O)c1ccc(C(C)(C)C)cc1)C(=O)NC(N)=O (stereo unspecified)	4.0	13.4
CCc1ccccc1NC(=O)CNC(=O)CCc1ccc(OC)c(OC)c1	4.5	4.3
Cc1[nH]nc(CCC(=O)NCC2CCCN(C3CCCC3)C2)c1C (stereo unspecified)	-3.2	-5.5
Cc1ccc(SCCNC(=O)CN2C(=O)c3ccccc3C2=O)cc1	10.1	5.2
CC1CCN(CC[C@H]2CCCN2S(=O)(=O)c2cccc(O)c2)CC1	0.4	7.6
CN[P+](c1ccccc1)(c1ccccc1)c1ccccc1	-1.6	-11.5
O=S(=O)(c1ccc(SCCOc2ccc(Br)cc2)nc1)N1CCCC1	1.2	7.9
O=C(Cn1ccc(C(F)(F)F)n1)NN=Cc1cccs1	8.2	6.9
Cc1ccnc(Nc2ccc(NCCNC(=O)Cc3ccccc3)nn2)c1	12.8	3.4
CCc1nn2c(ncc3c(=O)n(-n4cnnc4)ccc32)c1-c1ccc(F)cc1	4.3	4.7
COc1ccc(C2CC(c3cccc(NC(C)=O)c3)=Nc3ccccc3S2)c(OC)c1 (stereo unspecified)	6.0	9.8
O=C(NC1CCS(=O)(=O)C1)c1ccc2c(c1)CCCC2 (stereo unspecified)	-2.0	-2.6
COc1ccc(C2c3cccn3-c3ccccc3N2C(=O)CN(C(=O)Nc2cccc(OC)c2)C2CC2)cc1 (stereo unspecified)	22.4	24.7
Cc1c(C(=O)N2CCN(C(=O)C3CC3)CC2)cc(-c2ccccc2)n1-c1ccc(F)cc1F	-11.3	-3.6
O=C(Cc1ccccc1F)Nc1cc(Cl)ccc1N1CCCC1	7.2	4.6
Cc1ccc(NC(=O)CC(NCCC2=CCCCC2)C(=O)O)c(C)c1 (stereo unspecified)	6.1	2.9
CCOC(=O)C1(Cc2ccc(F)cc2)CCCN(C(=O)c2cnc3ccccn3c2=O)C1 (stereo unspecified)	3.5	-1.2
CCOC(=O)Cc1csc2nc(=O)c3c(C)c(C)sc3n12	1.8	1.0
O=C(c1n[nH]c2ccccc12)N1CCOC(COc2ccc3c(c2)CCCC3)C1 (stereo unspecified)	6.4	12.1
COc1ccc(C)cc1C(C)NC(=O)C1CC2CCCC(C1)C2=O (stereo unspecified)	10.9	8.8
CC(C)(C)c1ccc(OCNC(=O)c2cncc(Br)c2)cc1	-0.1	-1.0
Cc1ccccc1-c1cnnc(NCCc2nc(C)c3c(n2)CCCC3)n1	13.5&-5.5	4.9&-7.6

Remaining list, next part:
SMILES	NPYLR7 agonist	NPYLR7 agonist max-min
COc1cc(CN(Cc2ccc(C(O)(c3cccc(F)c3)c3cccc(F)c3)o2)C(C)C)cc(OC)c1	-8.6	-2.2
CCOC(=O)C1(CC2CCCCO2)CCN(C(=O)Nc2ccc(OC)c(OC)c2)CC1 (stereo unspecified)	-7.8	-8.0
NC(=O)c1cc2cc(Cl)ccc2oc1=Nc1ccc(F)cc1	-4.4	-6.3
CC(=O)NC(C)c1ccc(-c2csc(N)n2)cc1 (stereo unspecified)	-3.7	-4.5
CCCC(=O)Nc1nnc(SCc2ccc(C)cc2)s1	-0.8	-6.6
CCc1ccccc1-c1cccc(N2CCNCC2)n1	8.3	6.8
Cc1nc(-n2nc(C3CC3)cc2NC(=O)c2cc(=O)c3ccccc3o2)[nH]c(=O)c1C	3.7	2.6
O=C(NC1CCC(n2cnnc2)CC1)c1ccc(C2CCCO2)s1 (stereo unspecified)	4.2	3.2
COc1ccc(C(=O)Nc2ccnn2C2CCN(CC3CC=CCC3)CC2)cc1 (stereo unspecified)	7.5	6.1

Seven entries drawn at random from the list so far, as already listed:
SMILES	NPYLR7 agonist	NPYLR7 agonist max-min
CC(C)(C)c1ccc(OCNC(=O)c2cncc(Br)c2)cc1	-0.1	-1.0
COc1cc(/C=C2\C(=O)N(c3cccc(Cl)c3)N=C2C)c([N+](=O)[O-])cc1OC	-12.8	-22.5
CCc1ccccc1-c1cccc(N2CCNCC2)n1	8.3	6.8
Cc1ccc2nc(Oc3ccc4c(c3)OCO4)cc(=O)n2c1	-0.4	-5.8
O=C(C1CCCCC1)N(Cc1ccccn1)c1nc2c(F)cc(F)cc2s1	4.6	-3.1
COC(=O)c1ccc2c(c1)CN(C(=O)/C=C/c1ccc(C)cc1)CC2	2.7	6.2
O=C(NC1CCC(n2cnnc2)CC1)c1ccc(C2CCCO2)s1 (stereo unspecified)	4.2	3.2

Screening data as filed in PubChem BioAssay.

This is a subset, so the mix of outcomes need not match the whole.
